HSV augment = increases HSV replication in cells; 0.005% of 220,000 active; maximum fold increase; AID 1956; HSV replication augmentation in cells, fold increase;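 active = peak rise of 1.5-fold or more in the series; inconclusive = self-fluorescent or not available for retest; tested in PC3 cells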;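 also: first round at 10 µM; read as green reporter fluorescence; hits show the peak of a series up to 25 µM; 1 = signal of infected wells without compound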
PKD1 inh = inhibitors of human PKD1 kinase; Q15139; PKD1 kinase fluorescence polarization assay; inhibition, %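 (about 10 µM by stock and volumes)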; 0.056% of 200,000 active; AID 797;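 active = inhibition of 50% or more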;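 also: controls were vehicle for no effect and a reference inhibitor for full effect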
Target sequence (Q15139 whole entry, looked up): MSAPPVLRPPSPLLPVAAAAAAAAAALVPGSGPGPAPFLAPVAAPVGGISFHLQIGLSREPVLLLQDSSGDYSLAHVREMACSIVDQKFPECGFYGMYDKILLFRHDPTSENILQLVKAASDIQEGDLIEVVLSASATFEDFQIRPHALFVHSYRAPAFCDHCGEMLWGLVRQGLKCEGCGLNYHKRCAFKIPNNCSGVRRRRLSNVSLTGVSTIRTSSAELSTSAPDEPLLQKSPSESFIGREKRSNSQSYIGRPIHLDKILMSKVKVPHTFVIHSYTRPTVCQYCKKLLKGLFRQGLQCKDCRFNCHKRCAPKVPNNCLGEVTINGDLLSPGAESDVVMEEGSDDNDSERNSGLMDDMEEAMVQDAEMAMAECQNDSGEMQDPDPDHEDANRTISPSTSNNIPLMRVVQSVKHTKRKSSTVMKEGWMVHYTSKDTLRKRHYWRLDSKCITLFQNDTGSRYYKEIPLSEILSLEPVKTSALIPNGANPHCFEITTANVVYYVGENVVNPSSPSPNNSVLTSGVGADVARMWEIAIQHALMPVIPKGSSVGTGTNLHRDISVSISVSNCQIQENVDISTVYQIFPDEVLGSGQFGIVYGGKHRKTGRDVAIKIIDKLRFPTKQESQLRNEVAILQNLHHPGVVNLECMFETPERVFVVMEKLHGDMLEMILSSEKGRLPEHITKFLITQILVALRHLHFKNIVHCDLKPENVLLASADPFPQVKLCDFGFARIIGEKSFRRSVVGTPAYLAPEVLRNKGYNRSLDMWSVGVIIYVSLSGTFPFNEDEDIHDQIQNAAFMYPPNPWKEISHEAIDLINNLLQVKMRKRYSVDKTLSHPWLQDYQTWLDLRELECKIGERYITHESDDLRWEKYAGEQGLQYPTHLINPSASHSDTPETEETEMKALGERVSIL
INS promoter inh = TRM-6 insulin promoter activity inhibition; TRM-6 cells (human fetal islet line), insulin promoter-eGFP reporter, imaging; reporter expression induced with tamoxifen; inhibition, % at 2 µM; 0.9% of 130,000 active; AID 1273;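 active = inhibition above the mean plus 3 SD, with well images judged a real hit on visual review, cut at about 60% in these data, passing the limit was not always enough; inconclusive = inhibition over the cutoff but images rejected on review; inactive = inhibition not above the cutoff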
RGS16-Gao = RGS16-Galphao interaction regulator (human) | AID 1441 | bead-based flow cytometry RGS16-Galphao binding, fluorescence; actives lie on both sides | O15492+P09471 | binding response (% of control), % at 10 µM | 0.38% of 220,000 active;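 active = below 25% or above 175%, edge rows of some plates excepted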;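 also: Galphao activated by GDP with aluminum fluoride before binding; 100% = wells without compound and 0% = beads without RGS; some results beyond the cut were filed as inactive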
GALR2 agonist = GALR2 (human) receptor agonism; O43603; GALR2-expressing cells, agonist activation read-out; activation, %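 (tested at 5 µM)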; 0.48% of 140,000 active;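 active = above mean plus 3 SD of all compounds, about 5% in these data, not always enough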;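 also: 0% = vehicle buffer wells and 100% = reference agonist at full effect; tested in CHO reporter cells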
INS promoter inh cell count = second read-out of INS promoter inh, no call of its own (marks repeat the call); normalized cell count, %; measured here: cell count, toxicity; reference of the scale not given here;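 cells exposed to compound for 48 h; stained nuclei by imaging scaled within each plate; lower means fewer cells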
HSV augment primary fold = second read-out of HSV augment, no call of its own (marks repeat the call); fold increase; compound at 10 µM; measured here: primary screen fold increase 10 uM; tested in PC3 cells;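 GFP signal in the first replicate; 1 = infected wells without compound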
Numbers without * were called inactive; i = inactive; ? = inconclusive; . = not tested or not shown. No enrichment for hits; 1.3% or so of the library scored in one or more.

SMILES	HSV augment	HSV augment primary fold	PKD1 inh	INS promoter inh	INS promoter inh cell count	RGS16-Gao	GALR2 agonist
COc1ccc(S(=O)(=O)NCCSC(C)(C)C)cc1Cl	i	0.9	-6	-29	97	102	-1.8
COc1cc(S(=O)(=O)N2CCN(Cc3ccccc3)CC2)ccc1Br	i	0.82	0	-192	99	108	-1.8
Cc1cc(C)nc(NC(=O)CSc2nc3ccccc3o2)n1	i	0.98	-6	-8	89	109	-2.0
O=C1CC(N2CCOCC2)C(=O)N1c1cc(Cl)cc(Cl)c1 (stereo not drawn)	i	0.93	-17	22	104	94	-1.9
CN(C(=O)c1ccncc1)c1nnc(-c2ccncc2)s1	i	1	15	4	93	99	-1.3
O=C1C2CCCN2c2ccc(S(=O)(=O)N3CCOCC3)cc2N1Cc1cccc(C(F)(F)F)c1 (stereo not drawn)	i	0.97	3	-69	102	100	-2.9
COC(=O)CN1C(=O)Nc2ccc(Br)cc2C1c1ccccc1 (stereo not drawn)	i	0.94	-10	-93	57	106	-1.8
COc1ccc(CNC(=O)c2cc(C3CC3)on2)cc1	i	0.96	-11	.	.	99	.
Cc1ccc(Nc2ccc(S(=O)(=O)N3CCOCC3)cc2[N+](=O)[O-])c(C)c1	i	1.2	9	.	.	96	-1.3
COc1ccccc1Nc1nnc(SCC(=O)c2cc(C)n(CC3CCCO3)c2C)s1 (stereo not drawn)	i	0.97	-1	-59	160	96	-0.5
O=C(OCC(=O)N1CCCC1=O)C1COc2ccccc2O1 (stereo not drawn)	i	0.98	7	.	.	100	.
CC(=O)OC(C(=O)NC1CCCCC1)c1ccncc1 (stereo not drawn)	i	1	-12	-24	111	109	-0.8
O=C(c1ccc(Cl)cc1)c1ccc(OCC(=O)N2CCOCC2)cc1	i	0.86	7	.	.	113	-1.4
N#Cc1cn(-c2ccccc2)nc1-c1ccco1	i	0.86	-5	32	92	101	0.2
Cc1[nH]c2ccccc2c1C(=O)CN1CCCCC1C (stereo not drawn)	i	1.1	-6	.	.	77	-3.0

Three structures out of the list, arranged by length of the SMILES, rising:
SMILES	HSV augment	HSV augment primary fold	PKD1 inh	INS promoter inh	INS promoter inh cell count	RGS16-Gao	GALR2 agonist
CC(=O)OC(C(=O)NC1CCCCC1)c1ccncc1 (stereo not drawn)	i	1	-12	-24	111	109	-0.8
O=C(c1ccc(Cl)cc1)c1ccc(OCC(=O)N2CCOCC2)cc1	i	0.86	7	.	.	113	-1.4
O=C1C2CCCN2c2ccc(S(=O)(=O)N3CCOCC3)cc2N1Cc1cccc(C(F)(F)F)c1 (stereo not drawn)	i	0.97	3	-69	102	100	-2.9

Individual results from above:
O=C1C2CCCN2c2ccc(S(=O)(=O)N3CCOCC3)cc2N1Cc1cccc(C(F)(F)F)c1 (stereo not drawn) in GALR2 agonist: -2.9
CN(C(=O)c1ccncc1)c1nnc(-c2ccncc2)s1 in RGS16-Gao: 99
N#Cc1cn(-c2ccccc2)nc1-c1ccco1 in RGS16-Gao: 101

Following part
SMILES	HSV augment	HSV augment primary fold	PKD1 inh	INS promoter inh	INS promoter inh cell count	RGS16-Gao	GALR2 agonist
Cc1cc(C)n2nc(SCc3nnc(-c4cccs4)o3)nc2n1	i	0.9	-2	-8	194	107	.
S=c1[nH]c(-c2ccc(Br)cc2)cn1CCc1ccccc1	i	0.89	-3	0	104	97	.
COc1ccc(C(=O)Nc2cccc(C(=O)N3CCN(C)CC3)c2)cc1	i	0.85	3	-4	90	99	-1.9
CCCCc1c(O)nc(SCC(=O)N2CCOCC2)[nH]c1=O	i	0.94	-5	-36	115	98	-0.7
CCOC(=O)C1CCN(C(=O)c2sc3nc(-c4ccc(F)cc4)cn3c2C)CC1	.	.	-12	.	.	102	-0.6
O=C(CSc1nnc(Cc2cc(=O)[nH]c(=O)[nH]2)n1-c1ccc(Cl)cc1)N1CCc2ccccc21	i	0.97	-1	29	121	96	.
Cc1ccccc1NC(=O)c1cn(-c2ccccc2)nc1-c1ccccc1	i	0.89	-5	.	.	98	0.7
COc1ccc(OC)c(NC(=O)Nc2ccccc2C)c1	i	0.99	-12	-71	84	99	-0.7
Cn1c(Cc2ccccc2)nnc1SCC(=O)c1ccc(Br)s1	i	0.87	1	95*	108*	96	-0.7
COc1cccc(NC(=S)/C(=C(\[O-])c2cc(C)n(-c3ccccc3F)c2C)[n+]2ccc(N(C)C)cc2)c1	i	1.1	-6	19	74	112	.
O=C1NC(=O)C2(COC(c3ccncc3)OC2)S1 (stereo not drawn)	i	0.95	-3	-3	72	51	4.4
COc1ccc(CCC(=O)N2CCN(C3CCCCC3)CC2)cc1	i	0.97	-10	-108	53	104	-0.8
CCC(C)NCCOc1cccc(Br)c1 (stereo not drawn)	i	0.98	6	-23	62	140	0.2
COc1ccc2cc(/C=C/C(=O)c3ccco3)c(Cl)nc2c1	.	.	-1	6	119	104	-1.0
O=C(Cc1ccccc1)NCCCc1ccccc1	i	0.98	-6	.	.	103	-1.6
O=C(O)c1ccc(S(=O)(=O)c2ccccc2)cc1	i	0.87	-3	-173	108	109	-2.8
CC(C)CC(=O)NC1(C(F)(F)F)C(=O)N(Cc2ccccc2)C2=C1C(=O)CC(C)(C)C2 (stereo not drawn)	i	0.94	-9	-49	216	102	-1.5
O=C(O)c1ccc(N2Cc3ccccc3C2)cc1O	i	1.2	-4	13	69	99	-0.5
O=c1[nH]nc(-c2ccc(F)cc2)cc1Cc1ccccn1	i	0.92	.	.	.	98	.
Cc1ccc(SCC(=O)N2CCOCC2)cc1	i	0.85	17	-2	108	104	-0.4
Nc1nc(N2CCCCC2)nc2ccccc12	.	.	-12	.	.	96	-1.4
Cc1cc(NC(=O)CSc2nncc(=O)n2N)no1	i	0.82	-2	.	.	90	.
C/C(CC(=O)NC(C)C)=N\NC(=O)COc1cc(C)c(Br)cc1Br	i	0.81	-11	0	125	104	0.2
Cc1ccc(C)c(C(=O)COC(=O)c2cccc(N3C(=O)c4c(C)nc5ccccc5c4C3=O)c2)c1	i	0.91	-7	-20	162	103	-1.4
CC(=O)c1ccc(NC(=S)Nc2ccc3[nH]c(=O)[nH]c3c2)cc1	i	1	5	-7	147	96	.
CN(Cc1ccccc1)C(=O)c1nc2ccccn2c1CN1CCC(N2CCOCC2)CC1	i	1.1	.	.	.	106	.
CN(c1ccccc1)S(=O)(=O)c1cccc(C(=O)NNC(=O)c2ccccc2)c1	i	0.98	-6	.	.	102	.
O=C(Nc1ccccc1Cl)NC1(C(=O)NCCCN2CCOCC2)CCCCC1	i	1	-16	.	.	133	-1.1
O=C(/C=C/c1ccc([N+](=O)[O-])cc1)c1cccs1	i	0.93	.	.	.	95	.
CCOC(=O)C1CCCN(C(=S)NC2CCCC2)C1 (stereo not drawn)	i	0.99	4	.	.	100	.
O=C(Cn1cc(/C=N/NC(=O)c2cccc(C(F)(F)F)c2)c2ccccc21)Nc1ccc(F)cc1	i	0.59	8	.	.	98	-3.2
CC[N+](CC)(CC#Cc1ccccc1)CC(=O)c1ccc(Cl)cc1	i	0.94	3	.	.	102	-1.0
Cc1ccc(OCC(=O)O/N=C(\N)c2ccccn2)cc1C	i	0.99	.	.	.	100	.
CCN(CC)c1ccc(/C=N/NC(=S)NCc2ccco2)cc1	i	0.82	-5	100*	0.4*	101	1.2
O=C(NCc1ccccn1)c1nnc(Cc2ccc(Cl)cc2)o1	.	.	-4	-90	73	101	-0.9
Cc1c(C(=O)c2cccc(F)c2)c2ccccn2c1CCC#N	i	0.96	-6	.	.	107	.
COc1cccc(/C=C(\C(=O)O)c2ccccc2)c1	i	1.1	2	.	.	102	.
Cc1ccc(S(=O)(=O)N(Cc2ccc(F)cc2)Cc2ccco2)cc1	i	1	2	54	62	94	-1.6
CN(C)CC(C)(C)CNS(=O)(=O)c1ccc(OC(F)(F)F)cc1	i	0.96	4	33	105	103	.
Cc1ccccc1C(=O)O/N=C(\N)c1cccc([N+](=O)[O-])c1	i	0.98	-16	48	91	101	-0.6
Cc1cc(=O)n2[nH]nnc2n1	i	1.2	.	.	.	97	.
COc1ccc(C(=O)O/N=C(/c2ccccc2)c2ccncc2)cc1OC	i	0.93	-2	0	89	105	.
Cc1ccccc1Nc1nc2ccccc2s1	i	0.95	1	.	.	99	-0.5
CCOc1ccc(N2C(=O)CC(N3CCN(c4ccc(C(=O)c5ccncc5)cc4)CC3)C2=O)cc1 (stereo not drawn)	i	0.97	1	27	161	.	-1.4
O=C(c1cccc(Cl)c1)N1CCCC(c2ccc(Cl)cc2)=N1	i	0.9	-5	4	103	96	-1.6
O=C(CCCn1nnc(-c2cccnc2)n1)c1ccc(F)cc1	i	0.94	-2	19	108	231	-0.8
Cc1cc2c(cc1C)NC(c1cccnc1)C1=C(CC(C)(C)CC1=O)N2 (stereo not drawn)	i	0.97	-4	60	100	.	2.0
Fc1ccc(N2CCN(C(=S)NCC3CCCO3)CC2)cc1 (stereo not drawn)	i	0.82	2	-25	208	106	.
CN(c1ccccc1)S(=O)(=O)c1ccc(NC(=O)c2ccc(-c3ccccc3)cc2)cc1	i	0.84	-5	19	115	101	-2.1
CC(=O)c1cccc(NC(=O)C(NC(C)C)c2ccccc2)c1 (stereo not drawn)	i	0.89	6	.	.	106	.
CC1=NN(C(=O)Cc2ccccc2)C(O)(c2cccnc2)C1 (stereo not drawn)	i	0.78	-6	-22	118	107	-1.4
CCOC(=O)CNC(=O)/C=C/c1ccc2c(c1)OCO2	i	0.97	-2	.	.	99	.
CSc1ncccc1C(=O)OCc1cccc([N+](=O)[O-])c1	i	0.95	-6	.	.	108	.
COc1cccc(OCCc2c(C)n[nH]c2C)c1	i	0.95	-3	i	44	100	-1.8
C=CCSc1nnc(-c2cc3c(s2)-c2ccccc2CC3)o1	i	0.95	3	27	73	100	-0.1
COc1ccc(-c2ccc(CCC(=O)O)n2CC(C)C)cc1	i	0.72	1	-31	65	95	1.7
O=[N+]([O-])c1ccc(-n2nncc2-c2ccc(Cl)cc2)cc1	i	0.99	0	-20	120	103	-1.8
Cc1ccc(Nc2oc(C)nc2C#N)cc1	i	1	-4	-36	132	101	-0.9
O=C(CCS(=O)(=O)c1ccccc1)Nc1cccc2c1C(=O)NC2=O	i	0.92	1	.	.	107	.
O=C(COC(=O)Cc1ccc(-c2ccccc2)cc1)NCc1ccccc1	i	1	13	-13	149	105	-1.3

Gathered by group: the entries above containing a COOH group.
SMILES	HSV augment	HSV augment primary fold	PKD1 inh	INS promoter inh	INS promoter inh cell count	RGS16-Gao	GALR2 agonist
O=C(O)c1ccc(S(=O)(=O)c2ccccc2)cc1	i	0.87	-3	-173	108	109	-2.8
O=C(O)c1ccc(N2Cc3ccccc3C2)cc1O	i	1.2	-4	13	69	99	-0.5
COc1cccc(/C=C(\C(=O)O)c2ccccc2)c1	i	1.1	2	.	.	102	.
COc1ccc(-c2ccc(CCC(=O)O)n2CC(C)C)cc1	i	0.72	1	-31	65	95	1.7

Next records.
SMILES	HSV augment	HSV augment primary fold	PKD1 inh	INS promoter inh	INS promoter inh cell count	RGS16-Gao	GALR2 agonist
CN(c1ccccc1)c1cc(=O)[nH]c(=O)[nH]1	i	1.1	-1	.	.	103	0.0
COc1ccccc1CNC(=O)c1ccccc1N(C)S(C)(=O)=O	i	0.84	-9	-10	98	103	-1.4
CCOC(=O)CC1C(=O)NCCN1Cc1ccc(OC)c(OC)c1 (stereo not drawn)	i	1.1	6	-155	107	106	.
CCOC(=O)C1CCCN(C(=O)c2ccc(OCC)cc2)C1 (stereo not drawn)	i	0.89	-7	12	122	36	-0.9
O=C(Cn1nnc(-c2ccncc2)n1)N1CCc2ccccc21	i	0.82	-1	-230	86	99	-5.0
CCOCCc1nnc(NC(=O)c2ccc(OC)c(OC)c2)s1	i	1	-12	-36	78	95	0.2
Cc1ccc(CNC(=O)CN(C)S(=O)(=O)c2cccc3cccnc23)cc1	i	0.87	3	.	.	98	-0.4
CN(CC(=O)Nc1ccccc1F)CC(=O)Nc1ccc(F)c(F)c1F	i	0.89	-5	.	.	96	.
C=CCN(c1ccc(C(=O)Nc2ccc(C)c(C)c2)cc1)S(C)(=O)=O	i	0.83	-4	-19	153	100	-0.7
N#CC(C#N)=C1C=CC=CN1/C(=C\c1ccccc1)C(=O)c1cccs1	?	.	-4	.	.	87	-0.9
CCOC(=O)C1=C(CP(=O)(c2ccccc2)c2ccccc2)NC(=O)NC1c1ccc(Cl)cc1 (stereo not drawn)	i	0.95	2	.	.	99	0.0
O=C(COc1ncnc2cc([N+](=O)[O-])ccc12)NCc1ccc2c(c1)OCO2	i	0.97	-2	2	110	109	-2.2
COc1ccc(NC(=O)Cn2nnc(-c3ccccc3F)n2)cc1	i	0.96	-1	-8	91	95	-0.4

Screening data as filed in PubChem BioAssay.
